Screening results from PubChem.
HCMV NEC inh – inhibitors of HCMV UL50-UL53 interaction, biochemical, HTRF | 0.15% of 190,000 active | HCMV UL50-UL53 nuclear egress complex (human cytomegalovirus) | AID 1918969, 2023 | inhibition, % (test concentration not listed) | normalized percent inhibition;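 active = both replicates at 50% or more, plus weaker picks with an unusually low signal ratio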;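 note: stock transfer was 100 nL into about 20 µL; 0% = negative control wells and 100% = wells with untagged competitor protein; inactives centre near -12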
GIV Gai3 FP – inhibitors of GIV peptide binding to Galpha-i3, primary screen, biochemical, fluorescence polarization, FITC-GIV GBA peptide, rat Galphai3 | Guanine nucleotide-binding protein G(i) subunit alpha-3 (Rattus norvegicus), P08753 | 90 min; active compounds read low; scaled: aluminum fluoride 0%, vehicle 100% | percent of control (FP), % (concentration not given with the values) | 0.42% of 210,000 active | AID 1224905, 2016;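 active = replicate mean at 85% of control or lower, very high polarization wells dropped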;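 note: wells of about 15 µL received 100 nL stock; the first replicate is given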
Target sequence (P08753 whole entry, looked up): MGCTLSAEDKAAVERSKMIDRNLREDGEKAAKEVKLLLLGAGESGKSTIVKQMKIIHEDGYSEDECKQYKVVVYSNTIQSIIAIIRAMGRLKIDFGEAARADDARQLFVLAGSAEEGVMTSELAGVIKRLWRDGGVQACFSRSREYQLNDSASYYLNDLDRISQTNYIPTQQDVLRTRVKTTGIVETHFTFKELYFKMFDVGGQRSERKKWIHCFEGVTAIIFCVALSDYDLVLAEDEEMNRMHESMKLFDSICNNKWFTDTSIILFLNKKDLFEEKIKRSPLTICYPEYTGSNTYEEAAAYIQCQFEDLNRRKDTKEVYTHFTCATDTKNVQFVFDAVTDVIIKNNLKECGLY
Sa growth inh – S. aureus growth inhibition at 42 and 30 °C, primary screen, LtaS inhibitor project, RN4220, two temperatures; OD600, 20 h, 42 °C; active compounds read low; relative growth, % (concentration not given with the values); 0.53% of 170,000 active; AID 720641, 2013;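 active = growth at 42 °C up to 50% and 20 or more points under that at 30 °C, or under 10% at both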;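 note: 300 nL library stock went into each well; scaled to the means of positive and negative controls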
Sa growth inh second temp – further read-out of Sa growth inh, marked with its call; relative growth, %; measured here: growth at 30 °C;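 optical density after 20 h as mean of two plates; 100% = untreated growth and lower means inhibition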
The depositor's hits bear a star; / = no result given; & = joins results of further samples. A portion of the library (hit frequency here may not be typical).

| Structure | HCMV NEC inh | GIV Gai3 FP | Sa growth inh | Sa growth inh second temp |
| --- | --- | --- | --- | --- |
| NC(=O)c1ccc([N+](=O)[O-])cc1Cl | -115 | / | 82 | 77 |
| Cc1ccsc1/C=C/C1=NCCCN1C | -58&-30 | / | 91 | 90 |
| Cc1cccc(NC(=O)C2CCCN2S(=O)(=O)c2cccc3nsnc23)n1 (stereo not given) | -133 | 102 | / | / |
| CC(C)(C)c1ccc(S(=O)(=O)c2cnc(SCC(=O)Nc3ccc(F)c(Cl)c3)[nH]c2=O)cc1 | -58 | 108 | 84 | 56 |
| NC(=O)NC(=O)Cc1ccccc1 | -5 | / | 93 | 92 |
| CCC(Cc1c(I)cc(I)c(N)c1I)C(=O)O (stereo not given) | -7&-25 | / | 107 | 71 |
| COc1cc(C(=O)NCCCCCC(=O)O)cc(OC)c1OC | -47 | / | 92 | 90 |
| CCN1CCN(c2cc(C)c3cc(NC(=S)NCc4ccc(C)cc4)ccc3n2)CC1 | / | 104 | 156 | 67 |
| Cc1cc2c(cc1S(=O)(=O)N1CCCC1C(=O)NC1CCCC1)OC(C)C(=O)N2 (stereo not given) | 6 | 99 | / | / |
| COc1cc(C)nc(-n2nc(C)cc2OC)n1 | -43&-8 | / | 93 | 93 |
| CCCCN(CCCC)CC(O)c1cc(Cl)cc2c1-c1ccc(Cl)cc1/C2=C/c1ccc(Cl)cc1 (stereo not given) | 5 | 99 | / | / |
| CC1CCc2c(N3CCC(O)CC3)c(F)cc3c(=O)c(C(=O)O)cn1c23 (stereo not given) | -35&-17&-1 | 100 | -1.0* | -0.5* |
| CCC(=O)Nc1cc(C(C)(C)C)on1 | 0 | 90 | 81 | 89 |
| O=C(c1ccccc1)c1ccc2n1CCC2C(=O)O (stereo not given) | -16&0&-4&-4&-21&-48&-18&-26 | 104 | 99&99 | 105&97 |
| Nc1ncnc(Nc2ccccc2)n1 | 2 | / | 92 | 92 |
| CN=C(N)NC(=O)Nc1c(C)cccc1C | -7 | / | 99 | 85 |
| CCOC(=O)Nc1ccc2c(c1)N(C(=O)CCN1CCOCC1)c1ccccc1S2 | 1&-9 | / | 89 | 113 |
| Cc1ccc(CNC(=O)C2CCN(S(=O)(=O)c3c(C)noc3/C=C/c3ccccc3F)CC2)o1 | / | 104 | 80 | 85 |
| COC(=O)Nc1nc2ccc(S(=O)c3ccccc3)cc2[nH]1 (stereo not given) | -36&-19&5 | 101 | 94&98 | 88&96 |
| CCCc1cc(C(N)=S)ccn1 | -62&-14 | 101 | 83 | 87 |
| CC(C)(C(=O)c1cccnc1)c1cccnc1 | -61&-26&-14 | / | 83 | 89 |
| COc1ccc2c(CNCCc3ccccc3OC)c(C(=O)O)n(Cc3ccc(F)cc3Cl)c2c1 | / | 109 | 97 | 59 |
| O=C1CCc2cc(OCCCCc3nnnn3C3CCCCC3)ccc2N1 | -33&1&-3&-33&-27 | 96 | 94 | 90 |
| CC(=O)O[C@@]12CO[C@@H]1C[C@H](O)[C@@]1(C)C(=O)[C@H](O)C3=C(C)[C@@H](OC(=O)[C@H](O)[C@@H](NC(=O)OC(C)(C)C)c4ccccc4)C[C@@](O)([C@@H](OC(=O)c4ccccc4)[C@H]21)C3(C)C | -7 | 103 | 89 | 84 |

Filtered by structure: the compounds so far with sulfur
| Structure | HCMV NEC inh | GIV Gai3 FP | Sa growth inh | Sa growth inh second temp |
| --- | --- | --- | --- | --- |
| Cc1ccsc1/C=C/C1=NCCCN1C | -58&-30 | / | 91 | 90 |
| Cc1cccc(NC(=O)C2CCCN2S(=O)(=O)c2cccc3nsnc23)n1 (stereo not given) | -133 | 102 | / | / |
| CC(C)(C)c1ccc(S(=O)(=O)c2cnc(SCC(=O)Nc3ccc(F)c(Cl)c3)[nH]c2=O)cc1 | -58 | 108 | 84 | 56 |
| CCN1CCN(c2cc(C)c3cc(NC(=S)NCc4ccc(C)cc4)ccc3n2)CC1 | / | 104 | 156 | 67 |
| Cc1cc2c(cc1S(=O)(=O)N1CCCC1C(=O)NC1CCCC1)OC(C)C(=O)N2 (stereo not given) | 6 | 99 | / | / |
| CCOC(=O)Nc1ccc2c(c1)N(C(=O)CCN1CCOCC1)c1ccccc1S2 | 1&-9 | / | 89 | 113 |
| Cc1ccc(CNC(=O)C2CCN(S(=O)(=O)c3c(C)noc3/C=C/c3ccccc3F)CC2)o1 | / | 104 | 80 | 85 |
| COC(=O)Nc1nc2ccc(S(=O)c3ccccc3)cc2[nH]1 (stereo not given) | -36&-19&5 | 101 | 94&98 | 88&96 |
| CCCc1cc(C(N)=S)ccn1 | -62&-14 | 101 | 83 | 87 |

Next part:
| Structure | HCMV NEC inh | GIV Gai3 FP | Sa growth inh | Sa growth inh second temp |
| --- | --- | --- | --- | --- |
| O=C1COc2cc(S(=O)(=O)N3CCC(C(=O)NC4CCCC4)CC3)c(Cl)cc2N1 | 4 | 100 | / | / |
| Cc1nc2nc(NC(=O)c3cccc(Cl)c3)[nH]n2c(=O)c1Cc1ccccc1 | 9 | 95 | 93 | 92 |
| CCOC(=O)Nc1ccc(NCc2ccc(F)cc2)nc1N | -8&-17 | 107 | / | / |
| CCN(CC)CCOC(=O)C(c1ccccc1)c1ccccc1 | -28&-35&-1 | / | 93 | 89 |
| COc1cc(C(=O)NC(c2ccccc2Cl)c2cc(Cl)c3cccnc3c2O)cc(OC)c1OC (stereo not given) | / | 108 | 84 | 47 |
| CC(=O)N1CCOc2ccc(S(=O)(=O)N3CCCC3C(=O)Nc3nccs3)cc21 (stereo not given) | -30 | 106 | / | / |
| COc1ccc(-n2nnc(-c3nc(-c4cc(OC)ccc4OC)cs3)c2N)cc1 | 11 | 125 | / | / |
| CN=C(NC#N)Nc1ccc(C2=NNC(=O)CC2C)cc1 (stereo not given) | -59&-14&-37 | 102 | 85 | 79 |
| Cc1nc2cc(-c3noc(CNC(=O)c4ccccc4)n3)ccc2n(C)c1=O | -61 | 113 | / | / |
| Cc1cc(NC(=O)Cn2nc3c(Oc4ccccc4C)nc4ccccc4n3c2=O)ccc1Br | -8 | 102 | / | / |
| COc1cc(NC(=O)c2cc(C3CC3)on2)c(OC)cc1Cl | -4 | 102 | 90 | 89 |
| Nc1cc(=O)[nH]c(N)n1 | -35 | 102 | / | / |
| CN(C)CCOC(=O)C(c1ccccc1)C1(O)CCCC1 (stereo not given) | -11&-30 | / | 88 | 85 |
| CCCN(CCC)C(=O)C(CCC(=O)O)NC(=O)c1ccccc1 (stereo not given) | -45&12&-14 | 95 | 89 | 83 |
| COc1ccc(NC(=O)C2CCCN(c3nnc(C)c4c(C)n(-c5ccccc5)nc34)C2)cc1Cl (stereo not given) | / | 109 | 93 | 93 |
| CCOc1ccccc1NC(=O)CSc1nc2ccccc2c2nc(CCn3cncc3C)nn12 | / | 112 | 97 | 85 |
| CN1CCN(c2c(F)cc3c(=O)c(C(=O)O)cn4c3c2SCC4)CC1 | -43&-32&-69 | 104 | -0.4* | 0.1* |
| Cc1ccc(Cc2c(C)nc3c(-c4ccccc4)c(C)[nH]n3c2=O)cc1 | 2 | 104 | 108 | 79 |
| CCN1CC(CCN2CCOCC2)C(c2ccccc2)(c2ccccc2)C1=O (stereo not given) | 8&-27 | / | 90 | 89 |
| Cc1oncc1C(=O)Nc1ccc(C(F)(F)F)cc1 | -9&11&-12&-5&2 | 110&109 | 96 | 94 |
| O=C(NCCN1CCOCC1)c1ccc(Cl)cc1 | -33&-22&-18 | 97 | 106 | 89 |
| O=C(O)c1cc(-c2ccccc2)no1 | -8 | 101 | 113 | 87 |
| O=C(O)CCCCCCCC(=O)O | -26&-18 | 106 | 101 | 94 |
| CN(C)C(CNC(=O)c1cc(-c2ccc3c(c2)OCCO3)on1)c1ccc(Cl)cc1 (stereo not given) | -23 | 99 | / | / |

In the list so far, these have two or more sulfur atoms:
| Structure | HCMV NEC inh | GIV Gai3 FP | Sa growth inh | Sa growth inh second temp |
| --- | --- | --- | --- | --- |
| Cc1cccc(NC(=O)C2CCCN2S(=O)(=O)c2cccc3nsnc23)n1 (stereo not given) | -133 | 102 | / | / |
| CC(C)(C)c1ccc(S(=O)(=O)c2cnc(SCC(=O)Nc3ccc(F)c(Cl)c3)[nH]c2=O)cc1 | -58 | 108 | 84 | 56 |
| CC(=O)N1CCOc2ccc(S(=O)(=O)N3CCCC3C(=O)Nc3nccs3)cc21 (stereo not given) | -30 | 106 | / | / |

(list continues)
| Structure | HCMV NEC inh | GIV Gai3 FP | Sa growth inh | Sa growth inh second temp |
| --- | --- | --- | --- | --- |
| C=C1c2cccc(O)c2C(O)=C2C(=O)C3(O)C(O)=C(C(N)=O)C(=O)C(N(C)C)C3C(O)C12 (stereo not given) | 104* | 103 | 4.3* | 2.8* |
| CCCCOC(=O)c1ccc(N)cc1 | -28&-14 | / | 95 | 90 |
| C=CCN(Cc1nc(-c2cccc(C)c2)no1)C(=O)Nc1ccc(C)cc1 | -9 | 103 | / | / |
| Cc1nc2c([nH]1)c(=O)n(C)c(=O)n2Cc1ccco1 | 0&-21 | 102&98 | 97 | 89 |
| O=c1[nH]c(-c2ccc(C(F)(F)F)cc2)nc2c1CSCC2 | -2&-4&-3&-10&-10 | 103 | 112 | 97 |
| Cc1cc(Cl)ccc1NC(=O)Cn1nc(C)c2c(C)n(-c3ccccc3)nc2c1=O | / | 106 | 85 | 70 |
| Cc1c(C(C)C)c(=O)n(-c2ccccc2)n1C | 2 | 105 | 99 | 92 |
| COc1ccc(Cn2c(CCC(=O)Nc3cccc(OC)c3)nc3cccnc32)cc1 | -10&-39 | 101&105 | 101 | 93 |
| Cc1cc(NC(=O)C2CCN(S(=O)(=O)c3ccc4[nH]c(=O)oc4c3)CC2)ccc1Br | / | 112 | 94 | 103 |
| C#C[C@]1(OC(C)=O)CCC2C3CCC4=C/C(=N/O)CCC4C3CC[C@@]21CC (stereo not given in full) | -1 | / | 80 | 50 |
